Marburg entry inh: blocks Marburg virus binding to or entry into cells | Marburg virus pseudotyped entry inhibition, cell reporter; control for the full effect not named in the record; about a third of the inactives were read at about 46 µM | Potency, µM (top dose mostly 37.8 µM), for the others: at the highest dose activity change, negative = inhibition, usual class: inhibitors | hit rate 1.8% among 300,000 | AID 540276; active = well fitted inhibition curve with a large enough effect; inconclusive = small, poorly fitted or top-dose-only effect, or effect the other way; inactive = flat fitted curve, though single readings scatter; tested in HEK293 cells; about a fifth of its hits are not listed in these tables; note: % is set by controls: 0 for no effect and ±100 for the full control effect; luciferase read-out
Cruzain noTriton: inhibitors of Trypanosoma cruzi cruzain without detergent; purified cruzain, Z-FR-AMC fluorescence, no detergent; P25779; hit rate 2.3% among 200,000; Potency, µM, inactives show max response, negative = inhibition, most hits filed as inhibitors;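 note: plate controls were enzyme without inhibitor for no effect and buffer without enzyme for full effect; nearly all actives have a fitted effect of over 40% in size; top concentration of the series not given in the record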
Target sequence (P25779 123-467 limits assumed): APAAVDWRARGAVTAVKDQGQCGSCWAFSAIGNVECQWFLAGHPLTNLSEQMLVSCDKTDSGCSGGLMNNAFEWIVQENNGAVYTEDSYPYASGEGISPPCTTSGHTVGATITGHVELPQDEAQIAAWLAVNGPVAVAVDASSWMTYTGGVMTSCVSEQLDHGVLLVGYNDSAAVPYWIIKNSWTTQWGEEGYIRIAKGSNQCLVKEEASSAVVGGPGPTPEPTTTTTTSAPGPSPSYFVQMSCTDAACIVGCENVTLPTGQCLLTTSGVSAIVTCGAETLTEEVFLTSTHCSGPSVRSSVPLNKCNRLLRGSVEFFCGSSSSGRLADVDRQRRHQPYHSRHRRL
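Detergent-free condition (0.00005% Triton X-100) in acetate buffer pH 5.5 with DTT. 1.5 nM enzyme and compound were pre-mixed 15 min, then 2 uM Z-FR-AMC substrate added; reaction progress from fluorescence change between first and third reads (60 s).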
NS1 inh: inhibitors of influenza NS1 protein function | S. cerevisiae slowed by influenza A NS1, growth recovery by OD600 | Potency, µM (top dose mostly 46.1 µM), inactives show at the highest dose activity, positive = more growth | hit rate 0.4% among 270,000; active means well fitted rising curve with a large enough effect; inconclusive means small, poorly fitted or top-dose-only effect; inactive means no such curve, though single readings can be large or run the other way; note: nearly all actives have a fitted effect of over 50% in size
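Compounds were scored for reversing the slow growth caused by influenza A NS1 in S. cerevisiae, measured by optical density at 600 nm. Assay medium contained 2% galactose at pH 6.0; NS1-free yeast of the same strain were the positive control.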
Cruzain inh Det: inhibitors of Trypanosoma cruzi cruzain with detergent; Potency, µM, inactives show max response, negative = inhibition, hits mostly inhibitors; AID 1478; hit rate 0.43% among 200,000; purified cruzain, Z-FR-AMC fluorescence, 0.01% Triton;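 note: plate controls were neutral wells for no effect and buffer without enzyme for full effect; nearly all actives have a fitted effect of over 40% in size; top concentration of the series not given in the record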
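Sodium acetate buffer (100 mM, pH 5.5) containing 5 mM DTT and 0.01% Triton X-100 hosted 1.5 nM cruzain and test compound for 15 min at room temperature. Cleavage of 2 uM Z-FR-AMC was then tracked by fluorescence.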
RE007 growth inh: less growth of the S. pombe RE007 Vpr strain; AID 651644; hit rate 0.21% among 360,000; S. pombe RE007 Vpr strain, BacTiter-Glo ATP luminescence, 24 h; control for the full effect not named in the record; Potency, µM (highest dose often 92.2 µM), without a hit: at the top dose activity change, negative = less growth; active = well fitted falling curve with a large enough effect; inconclusive = small, poorly fitted or top-dose-only effect; inactive = no such curve, though single readings can be large or run the other way;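 note: % is set by controls: 0 for no effect and ±100 for the full control effect; nearly all actives have a fitted effect of over 50% in size; the assay follows cell death caused by Vpr and the record does not say whether a fall means rescue or toxicity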
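Fission yeast RE007 carrying one integrated HIV-1 vpr copy, seeded at OD 0.01 in PMG+AL medium with 23 nL pinned compound. Grown 24 h at 30 degrees; viability read by BacTiter-Glo luminescence after 5 min.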
2A StopGo: lowers the luciferase signal of an FMDV 2A StopGo reporter. human cells with a luciferase reporter of 2A StopGo recoding; control for the full effect not named in the record. Potency, µM (titrated, usually from 57.9 µM), inactives show at the top dose signal change, negative = less light. hit rate 1.2% among 410,000; active = well fitted falling curve with a large enough effect; inconclusive = small, poorly fitted or top-dose-only effect; inactive = no such curve, though single readings can be large or run the other way; tested in HEK293T cells; note: % is set by controls: 0 for no effect and ±100 for the full control effect; nearly all actives have a fitted effect of over 45% in size; luciferase light after 4 h
SARS PLP yeast: blocks SARS-CoV papain-like protease in a yeast assay; S. cerevisiae expressing SARS-CoV PLpro, growth rescue; control for the full effect not named in the record; Potency, µM (doses to about 32.9 µM), for inactives: at the highest dose activity, positive = growth rescue; hit rate 0.19% among 330,000; AID 485353; active means well fitted rising curve with a large enough effect; inconclusive means small, poorly fitted or top-dose-only effect; inactive means no such curve, though single readings can be large or run the other way; note: 0% is about no effect; nearly all actives have a fitted effect of over 55% in size; growth read by luminescence after 48 h
Lassa entry inh: inhibitors of Lassa virus binding or cell entry. hit rate 1.2% among 300,000. Lassa virus pseudotype entry inhibition, cell reporter; control for the full effect not named in the record. AID 540256. Potency, µM (series often up to 37.9 µM), without a hit: at the top dose activity change, negative = inhibition, actives largely listed as inhibitors; active means well fitted inhibition curve with a large enough effect; inconclusive means small, poorly fitted or top-dose-only effect, or effect the other way; inactive means flat fitted curve, though single readings scatter; tested in HEK293 cells; note: % is set by controls: 0 for no effect and ±100 for the full control effect; nearly all actives have a fitted effect of over 50% in size; luciferase read-out
The depositor's hits bear a star; u = inconclusive; x = no result given; & = joins results of further samples; [ ] = dose if it differs, or a comment. Unless noted, calls come from the whole dose curve; as a rule, active = well fitted curve in the direction sought with a large enough effect; inconclusive = small, poorly fitted or top-dose-only effect, or another doubt; inactive = no such curve, though single readings can be large; an effect the other way counts as inactive or inconclusive. Potency is the fitted concentration of half-maximal effect.

SMILES | Marburg entry inh | Cruzain noTriton | NS1 inh | Cruzain inh Det | RE007 growth inh | 2A StopGo | SARS PLP yeast | Lassa entry inh
Cc1cc2cc(CNC(=S)Nc3ccc(OC(F)F)cc3)ccc2[nH]1 | -32% | -10% | u | -8.4% | 1% | 24% | 7% | u
COc1ccc(NC(=O)c2cc(-c3ccco3)on2)cc1OC | 14%[46.1 µM] | x | 4% | x | -12% | -2% | -2% | 17%
COc1ccc2c(c1)-c1c(ssc1=S)C(C)(C)N2C(=O)CSC1=NCCS1 | u | u | u | -0.2% | -10% | u | 3% | -3%
C=CCNC(=O)c1c(C(F)(F)F)nn(C)c1Cl | 2%[46.1 µM] | x | x | x | -1% | 22% | 2% | 14%[46.1 µM]
CCN(CC)S(=O)(=O)c1ccc(C(=O)NCCCN=C2NS(=O)(=O)c3ccccc32)cc1 | -1% | 11% | 1% | -0.6% | 29% | 15% | 1% | -20%
CC1CCN(S(=O)(=O)c2ccc3c(c2)NC(=O)CS3)CC1 | x | x | 10% | x | 6% | 2% | 7% | x
CC(=O)c1c(C)[nH]c(C(=O)Nc2c(C)n(C)n(-c3ccccc3)c2=O)c1C | 8%&8% | 2% | 1% | 0.1% | -1% | -22% | 7% | -18%
Cc1ccc(C(=O)N/C(=C/c2ccc(N(C)C)cc2)C(=O)NCC2CCCO2)cc1 (centres undefined) | -26%[46.1 µM] | x | -11% | x | -2% | -7% | 1% | 10%
CCOC(=O)C1C2C=CC3(CN(Cc4ccco4)C(=O)C13)O2 (centres undefined) | -1% | 26% | 13% | -0.8% | 9% | -2% | 9% | 6%
COc1ccc(NC(=O)CC2C(=O)N(c3ccc(F)cc3)C(=O)N2CCc2sccc2C)cc1 (centres undefined) | u | -2% | x | -4.5% | x | 1% | x | u
Cc1ccccc1NC(=O)Cn1c(=O)n(Cc2ccco2)c(=O)c2cccnc21 | -4%[46.1 µM] | -8% | x | -2.6% | x | -9% | x | x
C[C@@H]1C(=O)O[C@@H]2CC34[C@H]5C[C@@H](C(C)(C)C)C36[C@H](OC(=O)[C@@H]6O)OC4(C(=O)O5)[C@@]12O (some centres undefined) | 11% | 5% | -11% | 3.5% | 12% | -12% | -5% | 16%
Cc1nccn1S(=O)(=O)c1cc([N+](=O)[O-])ccc1Cl | u | 5% | 5% | -2.7% | 3% | u | 6% | u
Cc1ccc(C(=O)NCCCN2CCOCC2)o1 | -6% | 11% | 6% | 0.1% | 0%[3.69 µM] | -7% | 10% | 20%
COc1ccc(OCC(=O)Nc2ccc(NC(=O)c3cccs3)cc2)cc1 | -5%[46.1 µM] | x | -20% | x | -1% | 42%[activator] | -10% | x
CC(=O)Nc1ccc(S(=O)(=O)Nc2nccs2)cc1 | 21%[46.1 µM] | x | u | x | 5% | 6% | 2% | -12%[46.1 µM]
O=C1Nc2ccccc2/C1=C\c1cccn1-c1ccc(OC(F)(F)F)cc1 | -29% | -6% | 18% | -8.9% | -1% | u | -21% | 0%
Cc1ccc(S(=O)(=O)NC2=NCN(CC(=O)O)CN2)cc1 | u | x | 7% | x | -5% | -2% | -2% | 25%[46.1 µM]
O=C(COC(=O)c1cnccn1)c1ccc(Br)cc1 | -10% | -10% | -19% | 3.9% | -23% | -20% | 3% | -1%
COc1ccc(-c2nn(C)c(=O)c3ccccc23)cc1CNC(=O)C1CCCCC1 | u | x | 1% | x | -3% | -11% | 0% | -22%[46.1 µM]
CCn1nnc(-c2ccccc2NC(=O)c2cc(OC)c(OC)c(OC)c2)n1 | u | u | -14% | -8.3% | -6% | x | 9% | u
CCOc1ccc2cc(S(=O)(=O)N3CCOCC3)ccc2c1 | 18%[46.1 µM] | -4% | -5% | -4.0% | 1% | 0% | -1% | 4%
COc1ccc(OC)c(C2C(C(C)=O)=C(O)C(=O)N2c2ccc(F)cc2)c1 (centres undefined) | 1% | -2% | -63% | -3.5% | -5% | -3% | -3% | -2%
O=C(CCS(=O)(=O)c1ccccc1)OCC(=O)N1CCN(S(=O)(=O)c2ccc(Cl)cc2)CC1 | 0% | x | x | x | -11% | -5% | 8% | -14%
O=S(=O)(c1cccc(-c2csc(-c3cccnc3)n2)c1)N1CCCCC1 | -14% | -2% | -53% | -4.4% | 0% | -26% | -7% | -26%
Cc1nnc(NCCO)c2ccccc12 | 0% | -2% | 5% | -3.1% | -12% | x | 15% | -3%
CS(=O)(=O)N(Cc1ccc(C(=O)Nc2ccccc2Sc2ccccc2)cc1)c1ccccc1 | -22% | -14% | -4% | 3.6% | 6% | 6% | 9% | u
O=Cc1cc2ccccc2nc1SCc1ccc(Cl)c(Cl)c1 | 2.2µM* | u | 9% | 8.7% | -3% | u | 5% | u
CCOC(=O)C1CCN(Cc2c(O)c3ccccc3oc2=O)CC1 | u | x | 3% | x | 12% | 16% | -1% | u
Cc1ccc(-c2nnn(CC(=O)N(CC(=O)NC3CCCCC3)c3cccc(F)c3)n2)o1 | -3%[46.1 µM] | x | 20% | x | 5% | 18% | 2% | x
O=C(O)c1ccc(-n2cccc2/C=C2/SC(=O)N(CC(=O)N3CCCC3)C2=O)cc1 | -13%[46.1 µM] | x | 8% | x | 0% | 3% | 2% | 21%[46.1 µM]
COc1nnc(-c2ccc(C)c(S(N)(=O)=O)c2)c2ccccc12 | x | x | 8% | x | 18% | 5% | 0% | x
O=C(O)c1ccc(N/N=C/c2ccc3nccnc3c2)cc1 | x | x | -35% | x | u | 7.1µM* | -1% | x
CN(C)c1nc(NCc2ccccc2)nc(N/N=C/c2ccc(Br)cc2)n1 | x | x | 7% | x | -14% | -14% | -1% | x
COc1ccc(-c2cc(C(=O)Nc3ccc4c(c3)OCO4)no2)cc1 | -4%&10%[46.1 µM] | 8% | -8% | -0.8% | -7% | 7%&8% | -15% | u
CCN=C1S/C(=C\c2cc(Cl)c(OC)c(OC)c2)C(=O)N1CC | x | x | 4% | x | -4% | -4% | 1% | x
COc1cc(/C=C(/C#N)C(=O)Nc2ccc(C)cc2)ccc1Oc1nc(Cl)ncc1F | -5% | -2% | 22% | -3.8% | -29% | 0% | -2% | -18%
COc1ccc(-n2nc3c(N4CCC(C(=O)NCc5cccc(C)c5)CC4)nnc(C)c3c2C)cc1 | x | x | 2% | x | 23% | -5% | -1% | x
CCN(CC(=O)Nc1ccc(NC(C)=O)cc1)C(=O)COc1ccccc1Cc1ccccc1 | -10% | x | 1% | x | 1% | 3% | 4% | 21%
CCOc1ccccc1C(c1c(C)n(C)n(-c2ccccc2)c1=O)c1c(C)n(C)n(-c2ccccc2)c1=O | x | x | 13% | x | 2% | 0% | 1% | x
c1ccc(Nc2c(-c3ccccc3)nc3ncccn23)cc1 | 2%[46.1 µM] | -18% | x | -1.7% | x | 5% | x | -10%[46.1 µM]
CCOC(=O)c1c(C)[nH]c(C(=O)OCC(=O)Nc2sc(C(=O)N(C)C)c(C)c2C(=O)OCC)c1C | -14% | x | x | x | -7% | -14% | -1% | u
CSc1oc(-c2ccc(F)cc2)nc1S(=O)(=O)c1ccccc1 | -2% | 1% | -1% | -6.8% | 11% | x | 20% | 2%
Cc1cc(C(=O)NCc2cccs2)ccc1[N+](=O)[O-] | 10% | 8% | -2% | 0.5% | 1% | 21% | -20% | 21%
COc1ccccc1N1CCN(C(=O)c2cc(-c3cccs3)on2)CC1 | u | 4% | 6% | -8.3% | 10% | 16% | -10% | -1%
CC(C)C(NC(=O)c1ccccc1)C(=O)OCc1cc([N+](=O)[O-])cc2c1OCOC2 (centres undefined) | 1% | 4% | -17% | -4.2% | 15% | 0% | -4% | x
Cc1ccc2nc(C)c(C)nc2c1N | u | -5% | -4% | 0.8% | -21% | 16% | -6% | 4%
O=C1c2ccccc2C(=O)N1CCCc1nc(-c2ccc(Cl)cc2)no1 | x | -7% | 7% | -5.7% | 7% | -27% | 1% | x
O=C(CSc1cn(CC(=O)N2CCCC2)c2ccccc12)Nc1ccc(Cl)cc1 | x | -13% | x | -4.4% | x | u | x | 6%[46.1 µM]
O=C(NCc1cccnc1)C(=O)NCC(c1ccco1)N1CCN(c2ccccc2F)CC1 (centres undefined) | 6% | -8% | 2% | 0.1% | -18% | 0% | 6% | 2%
COC(=O)c1ccc(NC(=S)NC(=O)c2cc(-c3ccccc3)nc3ccccc23)cc1 | u | 10µM* | -2% | -1.9% | 6% | -12% | 0% | 2%
CCCCC(=O)Nc1ccc2nc(SCC(=O)N3CCc4ccccc43)sc2c1 | x | -19% | x | -3.1% | x | -10% | x | 3%[46.1 µM]
O=C(CSC1=NCCS1)N1CCN(c2ccccc2)CC1 | -5% | -29% | 24% | -2.4% | -1% | u | 17% | -2%
CCOC(=O)c1[nH]c2ccccc2c1NC(C)=O | x | x | 3% | x | 15% | -13% | 1% | x
CCOC(=O)N1CCN(C(=O)Cc2c(C(=O)O)n(C)c3ccccc23)CC1 | 8%[46.1 µM] | x | x | x | -19% | -8% | -3% | -2%
CCOC(=O)Cn1c(=O)cnc2ccccc21 | 6%[46.1 µM] | -10% | 1% | 1.1% | -1% | -1% | 5%[6.58 µM] | 4%
CCCCCc1cccnc1 | x | x | 1% | x | 11% | -5% | 0% | x
CCCSc1nc(O)c(C(c2ccc(OC)c(O)c2)c2c(O)nc(SCCC)n(C)c2=O)c(=O)n1C | -6% | 25% | 10% | -11% | 11% | -9% | 3% | u
c1ccc(C(c2ccccc2)N2CCN(Cc3nc(-c4cnccn4)no3)CC2)cc1 | x | x | 1% | x | -4% | -28% | -3% | x
O=C(Nc1ccc(Cl)cc1)N1CCCN(Cc2ccccc2F)C1 | u | -19% | -4% | -17% | -4% | -18% | 0% | -27%
O=C(NCCS(=O)(=O)NC1CCCC1)c1ccccc1 | 12%[46.1 µM] | x | x | x | 2% | -10% | 0% | 4%
